# Bioassay records deposited in PubChem by National Center for Advancing Translational Sciences (NCATS).
# LT uptake inh: blocks cellular internalization of anthrax lethal toxin | 70,000 tested, 0.67% active | Cells, anthrax lethal toxin internalization, FRET ratio (460/530) | AID 912 | Potency, µM (highest dose often 40 µM), without a hit: at the highest dose activity change, negative = inhibition, usual class: inhibitors; active = well fitted falling ratio curve with the 530 nm signal flat; inconclusive = other ratio curves, or a change in one channel alone; inactive = flat curves in the ratio and both channels; the % refers to the ratio; further: on the % scale 0 is the no-effect control and ±100 the full control effect; nearly all actives have a fitted effect of over 50% in size; tested in ME-180 cells; beta-lactamase reporter
# Prx2 Sm inh: blocks S. mansoni peroxiredoxin 2 enzymatic activity | S. mansoni Prx2 activity coupled to TGR/GSH (TGR is thioredoxin glutathione reductase), NADPH fluorescence loss, qHTS; some inactives read as strong as hits | Potency, µM | 65,000 tested, 0.07% active | AID 448; active means full or partial inhibition curve with a strong effect at the top dose; inconclusive means weaker partial or single-point curve; inactive means no accepted curve; further: series up to 57 µM; many of its hits are not listed in these tables
#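 Prx2 inhibition was measured as reduced NADPH consumption when electrons flowed from NADPH through TGR and glutathione to Prx2 and H2O2. Plates were read kinetically over 8 min; enzyme reagents were held at 4 deg C during dispensing.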
# * = called active by the depositor; ? = inconclusive; / = not tested or not shown; & = joins results of further samples; [ ] = another dose, or the depositor's remark. Potency means the concentration at half of the fitted maximal effect. A portion of the library; rates above refer to the full screens.
# Values run as follows: LT uptake inh, Prx2 Sm inh
- Cc1c(C(=O)OCc2ccccc2)[nH]c2c1C(=O)CC(c1ccco1)C2 (configuration not stated)
 : ?, >57
- CC1CCc2c(sc3nc(SCC(=O)NCc4ccco4)nc(N)c23)C1 (configuration not stated)
 : -18%, >57
- O=C(CCS(=O)(=O)c1ccc(Br)cc1)NCc1cccs1
 : -7%, >57
- COc1ccc(C(=O)Cn2nnc(-c3ccccc3NC(=O)C3CC3)n2)cc1
 : -12%, >57
- CCOc1ccccc1NC(=O)c1ccccc1N(C)S(C)(=O)=O
 : -5%, >57
- OC(COc1ccc2c(c1)CCC2)Cn1cnc2ccccc21 (configuration not stated)
 : -4%, >57
- COc1cc(NC(=O)c2ccccc2)c(OC)cc1NC(C)=O
 : ?, >57
- CCOC(=O)c1[nH]cnc1C(=O)Nc1ccccn1
 : 16%, /
- Cn1c(=O)c2c(nc(SCc3cccnc3)n2Cc2ccccc2)n(C)c1=O
 : 1%, >57
- CC(=O)NCCn1c(SCC(=O)c2ccccc2)nc2ccccc2c1=O
 : -6%, >57
- CC(=O)NCCNc1ncnc2ccc(-c3ccccc3C(F)(F)F)cc12
 : 0%, >57
- CC(=O)OC(C)=O
 : -11%, /
- CSc1cnn(-c2ccccc2)c(=O)c1SC
 : -1%, /
- Cc1ccc(OCC(=O)n2nc(C)cc2C)c(Br)c1
 : 3%, /
- c1ccc(CN2CC[C@@H](CNc3ncnc4ccccc34)C2)cc1
 : -12%[8 µM], >57
- CC(=O)Nc1c2c3c(cccc3n(C)c1=O)C(=O)c1ccccc1-2
 : 2%, >57
- OC1CCCN(Cc2cccc3ccccc23)C1 (configuration not stated)
 : -28%, /
- CC(CN1CCCCC1)OC(=O)c1ccc2c(c1)OCO2 (configuration not stated)
 : -3%, >57
- CC(c1ccccc1)n1cc(C(=O)NCc2ccccn2)nn1 (configuration not stated)
 : 1%, >57
- COc1ccccc1CCn1c(=O)c(-c2ccc(F)c(F)c2)nc2cncnc21
 : ?, >57
- NCC(O)COc1ccc2c(c1)OCO2 (configuration not stated)
 : -1%, >57
- CC(C)(C)c1ccc(C(=O)N2CCC(C(=O)NCc3ccncc3)CC2)cc1
 : 4%, >57
- Cc1ccc(S(=O)(=O)N2CCN(C(=O)COC(=O)COc3ccccc3)CC2)cc1
 : 4%, >57
- CS(=O)(=O)N1CCN(C(=O)c2ccncc2)CC1
 : ?, >57
- CC(=O)c1sc(NC(=O)c2ccccc2F)nc1C
 : 3%, >57
- Cc1nc2cc(NC(=O)COc3ccc(C#N)cc3)ccc2n1-c1ccccc1
 : 7%, >57
- c1ccc(-c2nc[nH]c2-c2ccccc2)cc1
 : -9%, >57
- Cc1ccc(-c2nn3c(C)nnc3s2)cc1NCc1c(F)cccc1Cl
 : /, >57
- O=C(CCn1c(=O)oc2ccccc21)Nc1nccs1
 : 2%, >57
- FC(F)(F)c1ccccc1-c1ccc2ncnc(NCc3cccs3)c2c1
 : ?, >57
- CCC/C=C(\CCC)C(NS(=O)(=O)c1cccc2cccnc12)c1ccc(-c2ccccc2)cc1 (configuration not stated)
 : -18%, >57
- C=C(C)C(O)/C=C/c1ccc(Br)cc1 (configuration not stated)
 : -10%[8 µM], /
- CCCCOc1ccc(NC2=NC3(CCCC3)N=C(N)N2)cc1
 : 4%, >57
- Cc1ccc(C(=O)Nc2ccccc2C(=O)NCc2ccco2)cc1S(=O)(=O)N1CCCCC1
 : ?, >57
- O=C(O)/C=C\C(=O)Nc1ncn[nH]1
 : -3%[8 µM], >57
- Cn1c(CSc2nc3ccc(Br)cc3[nH]2)nc2ccccc21
 : ?, /
- CC1=C(C(=O)Nc2ccc(C)cc2)C(c2ccc(N(C)C)cc2)NC(=O)N1 (configuration not stated)
 : -5%, /
- O=C1CCCC(=NCc2ccco2)C1
 : 24%, >57
- CC(C)CCn1c(CN2CCN(Cc3ccccc3)CC2)nc2c1c(=O)n(C)c(=O)n2C
 : /, >57
- CCOc1ccc2nc(NC(=O)C(CCSC)NS(=O)(=O)c3cccs3)sc2c1 (configuration not stated)
 : -23%, >57
- N#CC(C(=O)Nc1cccc(Cl)c1)=C1Nc2ccccc2N1
 : 12%, >57
- Cc1nnc2sc(-c3ccc(NC(=O)CSc4ccc(Cl)cc4)cc3)nn12
 : 10%, >57
- COc1cccc(NS(=O)(=O)c2ccc(S(=O)(=O)N3CCOCC3)cc2)c1
 : 7%, >57
- O=C(C1CCN(S(=O)(=O)c2cccc3nsnc23)CC1)N1CCCc2ccccc21
 : 14%, >57
- C/C(Cl)=C/Cn1c(NCCCn2ccnc2)nc2c1c(=O)[nH]c(=O)n2C
 : 15%, >57
- C[n+]1ccccc1/C=N\O
 : 0%[3.58 µM], >57
- CCOCCCN(C(=O)Cn1nnc2ccccc21)C(C(=O)NCc1ccco1)c1ccncc1 (configuration not stated)
 : -21%, >57
- CCCCc1nc(SCC(=O)Nc2ccc(S(N)(=O)=O)cc2)n[nH]1
 : -16%, >57
- CC(C)N1C(=O)C2C(C(=O)NCc3ccccc3)C3C=CC2(O3)C1C(=O)NC(C)(C)C (configuration not stated)
 : -4%, >57
- CN(C)c1nc2n(c(=O)n1)CCO2
 : -5%, >57

# Exported with bars between the fields: 3 of the compounds above
smiles | LT uptake inh | Prx2 Sm inh
C[n+]1ccccc1/C=N\O | 0%[3.58 µM] | >57
CCOCCCN(C(=O)Cn1nnc2ccccc21)C(C(=O)NCc1ccco1)c1ccncc1 (configuration not stated) | -21% | >57
CCCCc1nc(SCC(=O)Nc2ccc(S(N)(=O)=O)cc2)n[nH]1 | -16% | >57

# Remaining list, next part:
# Values run as follows: LT uptake inh, Prx2 Sm inh
- COc1ccc(Cn2nnnc2C(c2ccccc2)N2CCN(C3CCCC3)CC2)cc1 (configuration not stated)
 : -14%, >57
- CC1CC(C)CN(c2ncc3c(n2)CC(c2ccccc2Cl)CC3=O)C1 (configuration not stated)
 : ?, >57
- COc1ccc(C(C)N2CC34C=CC(O3)C(C(=O)OCC(C)C)C4C2=O)cc1 (configuration not stated)
 : -9%, >57
- CC(N=Cc1cccc(O)c1O)c1ccccc1 (configuration not stated)
 : ?, /
- Cc1nc2cc(F)ccc2n1C1CCN(Cc2nnnn2CCc2ccccc2)CC1
 : ?, >57
- CCCN(CCC)c1nc2ccccc2nc1C(C#N)C(=O)OCCOC (configuration not stated)
 : -17%, >57
- C=CCN(CC(=O)NCC1CCCO1)C(=O)CCC(=O)Nc1cc(C)on1 (configuration not stated)
 : 9%, >57
- NC1(C(=O)NC2(C(=O)O)CCCC2)CCCC1
 : ?, >57
- Cc1ccc2c(c1)nnn2C1CCN(CC(=O)NCCc2nc3ccccc3[nH]2)CC1
 : 12%, >57
- COc1ccc(-c2noc(CCC(=O)NCCCN3CCC(Cc4ccccc4)CC3)n2)cc1
 : ?, >57

# Record cards, from the list above. Order of values: LT uptake inh | Prx2 Sm inh
# C=CCN(CC(=O)NCC1CCCO1)C(=O)CCC(=O)Nc1cc(C)on1 (configuration not stated) in the list: 9% | >57
# Cc1ccc2c(c1)nnn2C1CCN(CC(=O)NCCc2nc3ccccc3[nH]2)CC1 in the list: 12% | >57

# (more compounds)
# Values run as follows: LT uptake inh, Prx2 Sm inh
- COC(=O)c1ccccc1NC(=O)c1cc(C2CC2)on1
 : -18%, >57
- COC(=O)[C@H](CCSC)NC(=O)C/C=C\[C@@H](C)[C@@H](CO)OC
 : -6%[1.6 µM], /
- Cc1ccc(NC(=O)CSc2nnc(COc3ccc(C#N)cc3)n2-c2ccccc2)cc1C
 : -4%, >57
- Cc1cc(=O)n2nc(N3CCCC(C(=O)N4CCOCC4)C3)sc2n1 (configuration not stated)
 : 4%, >57
- COc1ccc(CNC(=O)c2ccc(NC(=O)C3CCCO3)cc2)cc1 (configuration not stated)
 : 26%, >57
- CCCn1c(/N=C/c2cc(OC)ccc2O)nc2ccccc21
 : 0%, >57
- CC(C)c1ccccc1NC(=O)c1ccco1
 : 1%, >57
- Cc1ccc(C(=O)OCC(=O)Nc2ccc3c(c2)OCO3)o1
 : 12%, >57
- CC(C)c1nc(SCC(=O)Nc2cccc(C(F)(F)F)c2)c2c(=O)n(C)c(=O)n(C)c2n1
 : -17%, >57
- O=C(COc1cc(Cl)c(Cl)cc1Cl)Nc1ccncc1
 : -2%, >57
- OCCCN1c2ccccc2Nc2nnc(-c3ccccc3)cc21
 : 15%, >57
- CCC(C)(C)n1nnnc1CN1CCC(c2nc3ccc(C)cc3[nH]2)CC1
 : -5%, >57
- CCOC(=O)c1c(C)n(CC(O)c2ccccc2)c2ccc(O)cc12 (configuration not stated)
 : -24%, >57
- COc1cc(OC)c(C2Oc3nc(SC)nnc3-c3ccccc3N2C(C)=O)cc1OC (configuration not stated)
 : ?, /
- CCn1nc(C(=O)N2CCc3ccccc3C2)c2ccccc2c1=O
 : -4%, >57
- COc1cc2nc(SCC(=O)NCCc3ccccc3)n(Cc3ccco3)c(=O)c2cc1OC
 : ?, >57
- C[C@@H](/C=C\c1cccc(Oc2ccc(F)cc2)c1)N(O)C(N)=O
 : -25%&-5%, >57&>57
- Cc1cc(=O)[nH]c(Cc2ccc(OC(C)C)cc2)n1
 : 2%, /
- CSc1ccc(S(=O)(=O)Nc2c(C)cccc2C)cc1
 : -3%, >57
- CCOC(=O)N1CCN(C(=O)Cc2ccc(-n3c(=S)[nH]c4ccccc4c3=O)cc2)CC1
 : 3%, >57
- O=C(Oc1ccc(-c2ccccc2)cc1)N1CCOCC1
 : 6%, >57
- Cc1cccn2c(=O)c(C=Nc3c(C)n(C)n(-c4ccccc4)c3=O)c(N3CCCC3)nc12
 : -5%, >57
- O=C(CN1CCN(c2ccccn2)CC1)NCc1cccs1
 : -11%, >57
- COC(=O)[C@@]1(Cc2ccccc2)[C@H]2c3cc(C(=O)N4CCCC4)n(Cc4ccc(C(F)(F)F)nc4)c3C[C@H]2CN1C(=O)c1ccccc1
 : -3%, >57
- CCCn1c(SCC(=O)Nc2ccc3c(c2)OCCO3)nnc1-c1ccco1
 : 14%, >57
- COc1ccc(-c2nc(N)ncc2Oc2ccccc2Br)c(O)c1
 : ?, /
- CCOC(=O)CNc1c(-c2ccc(O)cc2)nc2ccccn12
 : ?, >57
- CC(C)(CN)CN
 : 0%[8 µM], >57
- COCc1c(Br)c(C)nc(OCC(=O)O)c1C#N
 : 10%, >57
- O=C1NC(c2ccccc2)(C(F)(F)F)SC2=CCCCCN12 (configuration not stated)
 : 0%, >57
- CCOC(=O)N1CCN(C(=O)c2cc(Cl)c(Cl)cc2C(=O)O)CC1
 : 0%, >57
- O=C(Cc1ccccc1I)Nc1ccccc1
 : ?, >57
- Nc1cc(C(=O)O)c(O)c(S(=O)(=O)O)c1
 : ?, /
- O=C(c1ccc2c(c1)OCO2)N(c1ccccc1)C1C=CS(=O)(=O)C1 (configuration not stated)
 : 14%, >57
- Cc1ccc(OCC(=O)NCCN2CCCC2)cc1
 : -15%, >57
- Nc1ccc2nc(-c3ccc(Cl)cc3)[nH]c2c1
 : ?, >57
- Cc1cc(C)cc(Nc2cc(C)nc3nc(C)nn23)c1
 : -3%, >57
- c1ccc2c(NCCN3CCOCC3)nc(-c3ccc4c(c3)OCO4)nc2c1
 : ?, >57
- CN1C(=O)C(O)(CC(=O)c2ccc(F)cc2)c2cc(Br)ccc21 (configuration not stated)
 : -10%, >57
- CCOC(=O)N1CCN(C(=O)C2CCCN(S(C)(=O)=O)C2)CC1 (configuration not stated)
 : 2%, >57
- CCN(CC)c1ccc2c(c1)CCCN2
 : -5%, >57
- CCCCOc1ccc(C(=O)Nc2ccncc2)cc1
 : 7%, >57
- COc1ccc(S(=O)(=O)NCCCCNS(=O)(=O)c2ccc(OC)cc2)cc1
 : -14%, >57
- CCN(CC)CCCNc1nnc(C)c(=O)[nH]1
 : 5%, >57
- CNc1nc(-c2c(C)noc2C)nc2ccccc12
 : 18%, >57
- N#Cc1ccc(CN2CCCC3(CCN(S(=O)(=O)c4ccccc4)CC3)C2)cc1
 : ?, >57
- Fc1ccc(NCc2nnc(SCc3nnc(-c4ccccc4)o3)n2CC2CCCO2)cc1 (configuration not stated)
 : 2%, >57
- Cc1ccc(S(=O)(=O)NC(=O)Nc2ccc(Cl)cn2)cc1
 : 5%, >57
- Nc1nnnn1/N=C/c1ccccc1C(F)(F)F
 : -5%, /
- CN(CC(=O)N1CCN(c2ccccn2)CC1)S(=O)(=O)c1ccc(Br)cc1
 : -4%, >57

# Additional structures follow.
# Values run as follows: LT uptake inh, Prx2 Sm inh
- CCCNC(=O)c1ccccc1C(=O)NCCC
 : -1%, /
- O=C(Nc1ccc2nsnc2c1)c1ccc2c(c1)OCO2
 : -8%, >57
- Cc1cc(C)c2c(n1)nn1c(NCCOCCO)cc(C)nc21
 : -2%, >57
- Cc1nnc2n1N=CC=C(C(C)(C)C)S2
 : ?, >57
- CCCCC(=O)NCCc1cc2ccc(OC)cc2[nH]c1=O
 : 4%, >57
- COc1cc(N2C(=O)c3ccccc3C2=O)c(Cl)cc1C(=O)OCC(=O)NCc1ccco1
 : -8%, >57
- O=c1c2oc3ccccc3c2ncn1Cc1ccccc1Cl
 : -11%, >57
- C(=NCCN1CCOCC1)=NC1CCCCC1
 : -4%[8 µM], >57
- O=[N+]([O-])c1cc([N+](=O)[O-])c2ccccc2c1
 : ?, /
- CC(=O)OC/C=C(C)/C=C/C=C(C)/C=C/C1=C(C)CCCC1(C)C
 : 16%, /
- CC(C)(C)OC(=O)NCCCCCc1nnc(SCC(=O)Nc2cccc(Cl)c2)o1
 : 1%, >57
- Cc1ccc(C)n1/N=C1/NC(=O)CS1
 : -11%, >57
